Kir21 block – inhibitors of mouse Kir2.1 inward-rectifier potassium channel. P35561. HEK293-Kir2.1, FluxOR thallium flux fluorescence; stronger effect = lower value. B-score at 10 µM. 310,000 tested, 0.85% active;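 active = fluorescence ratio B-score at or below minus 3 SD of library scores, with starting-brightness B-score within 2 SD, cut at about -4.2 in these data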;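 note: channel flux triggered by added potassium and thallium sulfate stimulus; B-score of peak minus minimum fluorescence over baseline after thallium stimulus; more negative B-score means stronger Kir2.1 block with less thallium influx; some compounds called inactive have numbers as strong as hits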
Target sequence (P35561 whole entry, looked up): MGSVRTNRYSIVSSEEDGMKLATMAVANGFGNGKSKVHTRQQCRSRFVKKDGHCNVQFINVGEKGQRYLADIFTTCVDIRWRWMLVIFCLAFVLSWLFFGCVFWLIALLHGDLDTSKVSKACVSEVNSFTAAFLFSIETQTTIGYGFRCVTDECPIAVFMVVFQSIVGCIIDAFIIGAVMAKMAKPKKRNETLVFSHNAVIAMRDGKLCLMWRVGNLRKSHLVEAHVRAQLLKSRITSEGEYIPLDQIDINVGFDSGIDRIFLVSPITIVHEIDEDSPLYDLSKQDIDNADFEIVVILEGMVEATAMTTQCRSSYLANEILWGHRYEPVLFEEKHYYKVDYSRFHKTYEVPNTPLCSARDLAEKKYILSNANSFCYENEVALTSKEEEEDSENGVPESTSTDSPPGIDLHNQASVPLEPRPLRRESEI
* marks the source's active call; other numbers are inactive results.

# | Structure | Kir21 block
1 | Cc1cc(NC(=O)C2CCCN(S(=O)(=O)c3c(C)noc3C)C2)n[nH]1 (centres undefined) | 0.14
2 | O=C(NCc1ccccn1)C1CCN(S(=O)(=O)c2ccc(Br)cc2)CC1 | -0.05
3 | N=C1C(=O)OCC1c1ccccc1NC(=O)CN1CCCCC1 (centres undefined) | 0.4
4 | CCOC(=O)c1sc2ncn(/N=C/c3cccnc3)c(=O)c2c1C | -0.56
5 | Cc1ccc(S(=O)(=O)Nc2ccccc2C(=O)Nc2sccc2C(=O)NN(C)C)cc1 | 0.82
6 | COc1ccc(CCNc2cc(C)[nH]c(=O)c2)cc1OC | -0.18
7 | Nc1c(C(=O)O)sc2nc(-c3ccccc3)c3c(c12)CCCC3 | 0.3
8 | COc1ccc(C(c2nnnn2CC2CCCO2)N2CCN(c3ccc(F)cc3)CC2)cc1 (centres undefined) | -1.8
9 | CCCCCC(NC(=O)C1CCN(C(=O)[C@@H](NS(=O)(=O)c2ccc(C)cc2)C(C)C)CC1)C(=O)O (some centres undefined) | 0.53
10 | CCCNC(=O)c1ccc(C)c(NC(=O)C2=C(C)OCCS2)c1 | 2
11 | CC(C)(C)c1ccc(C(=O)Nc2ccc([N+](=O)[O-])cn2)cc1 | -0.03
12 | COc1ccc(Cl)cc1NC(=O)NCc1cccnc1 | 0.15
13 | Cc1ccccc1C(=O)Nc1ccccn1 | 0.93
14 | CSCCNCc1cn(-c2ccc(F)cc2F)nc1-c1ccccc1C | -0.02
15 | COc1ccc(CC(=O)c2c(O)cc(O)cc2O)cc1OC | 0.12
16 | O=C(O)COCC(=O)NCc1nc(-c2ccc(C(F)(F)F)cc2)no1 | -0.1
17 | CCc1ccc2c(COC(=O)c3n[nH]c4ccccc34)cc(=O)oc2c1 | -0.59
18 | Cc1ccc(NC(=O)c2ccccc2CCc2ccccc2)c(C)c1 | -0.07
19 | COc1ccc(Nc2oc(-c3ccc(Cl)cc3)nc2C#N)cc1 | -2.1
20 | Cc1ccc(N/C=C2\C(=O)C3(C)CCC2C3(C)C)cc1C (centres undefined) | -0.4
21 | CC(C)N1CCN(Cc2cccc(-n3cccn3)c2)CC1CCO (centres undefined) | -0.14
22 | COC(=O)Nc1nnc(/C=C/c2ccc(OC)cc2)s1 | -0.6
23 | Cc1ccnc(NC(=O)CCC(=O)N(CC(=O)NC(C)(C)C)Cc2ccc3c(c2)OCO3)c1 | 0.32
24 | O=C(O)c1ccc(OCCn2ccnc2)cc1 | -0.52
25 | O=C(COc1ccc2c(c1)CCC2)NCc1ccc(Cl)cc1 | 0.05
26 | N#CN/C(=N\S(=O)(=O)c1ccccc1)c1ccccc1 | -1.6
27 | O=C(COc1ccc(F)cc1Cl)Nc1nc(-c2ccccn2)cs1 | 0.07
28 | Cn1c(C(=O)Nc2ccc3c(c2)OCCO3)cc2c(=O)n(C)c3ccccc3c21 | 0.63
29 | COc1cc(/C=C/C(=O)Nc2nc3ccc(S(=O)(=O)NC(C)C)cc3s2)cc(OC)c1OC | 0.01
30 | Cc1onc(-c2ccccc2)c1C(=O)N1CCCN(C(=O)c2c(-c3ccccc3)noc2C)CC1 | 0.64
31 | CCOC(=O)c1cc2c(c(CSc3nc4ccccc4c(=O)n3Cc3ccco3)c1)OCOC2 | -3
32 | COc1ccc(Cl)cc1-n1c(C)cc(C=O)c1C | 0.76
33 | CC1CN(C(=O)c2ccc(S(=O)(=O)Nc3ccccc3Cl)cc2)CC(C)O1 (centres undefined) | 0.92
34 | Cc1cc(NC(=O)COc2ccccc2)n(-c2ccccc2)n1 | 0.65
35 | CN(C)S(=O)(=O)c1ccc(N2CCCC2)c(C(=O)NNC(=O)COc2ccccc2Cl)c1 | 1.4
36 | CC(C)CNC(=O)c1ccccc1-c1ccccc1C(=O)O | 0.18
37 | COC(=O)CN1C(=S)N(Cc2ccccc2)C(=O)C1CC(=O)Nc1ccc(OC)cc1 (centres undefined) | -1.8
38 | Cc1oc(-c2ccccc2Cl)nc1CS(=O)CC(=O)NC1CC1 (centres undefined) | 1
39 | Cc1ccc(C)n1-c1nn(S(=O)(=O)c2cccc3cccnc23)c2cccc(F)c12 | 1.4
40 | CCCn1c(C)cc(/C=C(\C#N)C(=O)O)c1C | -0.7
41 | Cc1sc2ncnc(OCC(=O)NCC3CCCO3)c2c1C (centres undefined) | -0.27
42 | CCn1c(-c2csc(C(C)C)c2)n[nH]c1=S | 1.9
43 | O=C(/C=C/c1ccccc1O)c1ccc(Cl)cc1 | -2.7
44 | CC1CCC(NC(=O)c2ccc(COc3ccccc3)o2)CC1 (centres undefined) | -0.87
45 | Cc1cc(NC(=O)c2ccc(Cl)cc2)no1 | 0.06
46 | CCOC(=O)C1=C(C)NC(SC)=NC1c1ccc(OC)cc1 (centres undefined) | -1.7
47 | O=C(NC(NCC1CCCO1)C(Cl)(Cl)Cl)c1cccc2ccccc12 (centres undefined) | -1.5
48 | CN1CCN(C2=C(Cl)C(=O)N(c3ccc(Cl)c(Cl)c3)C2=O)CC1 | 1.1
49 | Cc1nc(-c2cc(C#N)c(=O)[nH]c2C)cs1 | -2.4
50 | CC(C)CN(C(=O)COC(=O)c1ccc2c(c1)NC(=O)CS2)C1CCS(=O)(=O)C1 (centres undefined) | 0.01
51 | Cc1oc(-c2ccccc2)nc1C(=O)OCC(=O)NC(=O)NCC(C)C | 0.23
52 | Nc1nc(COc2ccc(Cl)cc2)cs1 | 1
53 | CCOCCOC(=O)c1[nH]c2c(c1C)C(=O)CC(c1ccc(OC)c(OC)c1)C2 (centres undefined) | 1.2
54 | CC1=C(C(=O)OC(C)C)C(c2ccccn2)n2ncnc2N1 (centres undefined) | -0.96
55 | COc1ccc(NC(=O)C2COc3ccccc3O2)cc1 (centres undefined) | -0.51
56 | O=C1C2C3C=CC(C3)C2C(=O)N1CNc1ccccn1 (centres undefined) | 0.29
57 | CC(Sc1cnccn1)C(=O)O (centres undefined) | 1.2
58 | O=C(C1=C[C@H](c2ccc(Br)cc2)C[C@H](OCCCCO)O1)N1CCN(Cc2ccc3c(c2)OCO3)CC1 | -0.35
59 | COC(=O)CSc1nc(N2CCOCC2)c2c(c1C#N)CC(C)(C)OC2 | -0.56
60 | O=C(c1ccncc1)N1CCN(c2ccc3ccccc3n2)CC1 | -0.66

Part of the list above in order of count of non-hydrogen atoms, high to low:
# | Structure | Kir21 block
58 | O=C(C1=C[C@H](c2ccc(Br)cc2)C[C@H](OCCCCO)O1)N1CCN(Cc2ccc3c(c2)OCO3)CC1 | -0.35
30 | Cc1onc(-c2ccccc2)c1C(=O)N1CCCN(C(=O)c2c(-c3ccccc3)noc2C)CC1 | 0.64
31 | CCOC(=O)c1cc2c(c(CSc3nc4ccccc4c(=O)n3Cc3ccco3)c1)OCOC2 | -3
29 | COc1cc(/C=C/C(=O)Nc2nc3ccc(S(=O)(=O)NC(C)C)cc3s2)cc(OC)c1OC | 0.01
35 | CN(C)S(=O)(=O)c1ccc(N2CCCC2)c(C(=O)NNC(=O)COc2ccccc2Cl)c1 | 1.4
37 | COC(=O)CN1C(=S)N(Cc2ccccc2)C(=O)C1CC(=O)Nc1ccc(OC)cc1 (centres undefined) | -1.8
39 | Cc1ccc(C)n1-c1nn(S(=O)(=O)c2cccc3cccnc23)c2cccc(F)c12 | 1.4
28 | Cn1c(C(=O)Nc2ccc3c(c2)OCCO3)cc2c(=O)n(C)c3ccccc3c21 | 0.63
33 | CC1CN(C(=O)c2ccc(S(=O)(=O)Nc3ccccc3Cl)cc2)CC(C)O1 (centres undefined) | 0.92
51 | Cc1oc(-c2ccccc2)nc1C(=O)OCC(=O)NC(=O)NCC(C)C | 0.23
47 | O=C(NC(NCC1CCCO1)C(Cl)(Cl)Cl)c1cccc2ccccc12 (centres undefined) | -1.5
60 | O=C(c1ccncc1)N1CCN(c2ccc3ccccc3n2)CC1 | -0.66
34 | Cc1cc(NC(=O)COc2ccccc2)n(-c2ccccc2)n1 | 0.65
41 | Cc1sc2ncnc(OCC(=O)NCC3CCCO3)c2c1C (centres undefined) | -0.27
55 | COc1ccc(NC(=O)C2COc3ccccc3O2)cc1 (centres undefined) | -0.51
56 | O=C1C2C3C=CC(C3)C2C(=O)N1CNc1ccccn1 (centres undefined) | 0.29
32 | COc1ccc(Cl)cc1-n1c(C)cc(C=O)c1C | 0.76
40 | CCCn1c(C)cc(/C=C(\C#N)C(=O)O)c1C | -0.7
45 | Cc1cc(NC(=O)c2ccc(Cl)cc2)no1 | 0.06
52 | Nc1nc(COc2ccc(Cl)cc2)cs1 | 1
57 | CC(Sc1cnccn1)C(=O)O (centres undefined) | 1.2

Further compounds:
# | Structure | Kir21 block
61 | O=C(NC1CCN(C(=O)Nc2cccc(F)c2)CC1)c1ccco1 | 0.24
62 | COc1cc([N+](=O)[O-])ccc1NC(=O)CCCOc1cc(C)ccc1C | -2.1
63 | Cc1ccc2nc(N(CCN3CCOCC3)C(=O)CCS(=O)(=O)c3ccccc3)sc2c1 | -0.13
64 | COC(c1ccccc1)c1nnc(CCC(=O)N2CCCCCCC2)o1 (centres undefined) | 0.98
65 | COC(=O)Nc1c(-c2ccccc2)nc2ccc(Cl)cn12 | -0.13
66 | C=C(C)CNC(=S)NNC(=O)c1ccc(Br)cc1 | -0.62
67 | CC(=O)Nc1cccc(OCC(=O)NC(C)C(C)C)c1 (centres undefined) | -0.02
68 | CN1CCN(NC(=O)c2ccc(S(=O)(=O)N3CCCCCC3)cc2)CC1 | -2.7
69 | Clc1ccc(Oc2cnns2)cc1Cl | -5.7
70 | CC1CCC(NC(=O)c2ccc3c(c2)OCO3)CC1 (centres undefined) | -1.6
71 | CCC1CCCCN1C(=O)c1cc2c(=O)n3cccc(C)c3nc2s1 (centres undefined) | -0.61
72 | Cn1c(CN2CCC(C(N)=O)CC2)c(C#N)c2ccccc21 | 1.1

Molecules listed so far that have an aryl thioether with sulfur outside any ring (three):
# | Structure | Kir21 block
31 | CCOC(=O)c1cc2c(c(CSc3nc4ccccc4c(=O)n3Cc3ccco3)c1)OCOC2 | -3
57 | CC(Sc1cnccn1)C(=O)O (centres undefined) | 1.2
59 | COC(=O)CSc1nc(N2CCOCC2)c2c(c1C#N)CC(C)(C)OC2 | -0.56

Going on with the list:
# | Structure | Kir21 block
73 | CC(=O)COC(=O)C1CCN(S(=O)(=O)c2cc([N+](=O)[O-])ccc2Cl)CC1 | -0.6
74 | CN(C)c1ccc(C(=S)N2CCN(C(=S)Nc3ccccc3)CC2)cc1 | -1.1
75 | Cc1ccc(N2C(=O)C(Cl)=C(N3CCCCCC3)C2=O)c(C)c1 | 0
76 | CC1CN(C(C)C(=O)NC(c2ccccc2)c2ccccc2)CC(C)O1 (centres undefined) | 0.19
77 | O=C(Nc1nncs1)c1ccccc1Br | -0.01
78 | COC(=O)c1ccc(C2C(C(=O)c3cc4ccccc4o3)=C(O)C(=O)N2CCN2CCOCC2)cc1 (centres undefined) | -1.1
79 | CCNC(=O)CN1C(=O)NC2(CCOc3ccccc32)C1=O (centres undefined) | 0.55
80 | Cc1ccc(CN2CCN(Cc3ccc(-n4cccn4)cc3C)CC2CCO)cc1 (centres undefined) | -3.4
81 | COc1ccc(COCC(O)CN2CC(C)OC(C)C2)cc1OC (centres undefined) | 1.9
82 | Cc1cc(C)c(NC(=S)NCCO)c(C)c1 | -1.1
83 | CCc1cccc(C)c1NC(=O)COC(=O)c1ccc2c(c1)S(=O)(=O)c1ccccc1C2=O | 0.45
84 | COc1ccc(OCC(=O)NCCNC(=O)c2ccncc2)cc1 | -2.1
85 | COc1ccc(OC)c(NC(=O)COC(=O)c2cc3c(s2)CCC3)c1 | -1.4
86 | CC(C)NCC(O)COc1ccc(COCCOC(C)C)cc1 (centres undefined) | -0.02
87 | O=C(Nc1ccc2c(c1)OCO2)C1CCCCC1 | -0.32
88 | Cc1cccc2sc(NNC(=O)c3ccc4c(c3)OCCO4)nc12 | -1.3
89 | Cc1ccnc(N/C=C(/NC(=O)c2ccccc2)C(=O)N/N=C\c2ccc(Cl)cc2)n1 | 0.01
90 | CC1=N/C(=C\c2ccccc2Cl)C(=O)O1 | -0.93
91 | Cc1noc(C)c1C(=O)N1CCC(CO)(Cc2ccccc2)CC1 | 0.27
92 | CCOC(=O)C1C(=O)OC(C)(C)C1C(C)C(=O)c1ccccc1 (centres undefined) | 0.17
93 | O=C(COC(=O)CNC(=O)c1ccccc1)Nc1ccc(S(=O)(=O)N2CCOCC2)cc1 | -0.39
94 | Nc1c(C(=O)O)sc2nc(-c3ccccc3)cc(-c3ccc(F)cc3)c12 | -0.02
95 | Cc1nc2ccccc2c2nc(NC(=O)C(F)(F)F)nn12 | 1.1
96 | Cn1c2c(c(=O)n(C)c1=O)[C@@H]1c3c(ccc4ccccc34)OC[C@@H]1CO2 | 1.2
97 | O=C(COc1ccc(Cl)cc1)NNC(=O)C(=O)N1CCCCC1 | 0.63
98 | Cc1sc2ncn(CC(=O)NCCCC(=O)N3CCN(c4ccccc4F)CC3)c(=O)c2c1C | 0.21
99 | C=CCn1c(N2CCCCCC2)nc2c1c(=O)[nH]c(=O)n2C | -0.48
100 | COc1ccc(-n2c(=S)[nH]c3cc(C(=O)NC4CCCCC4)ccc3c2=O)c(OC)c1 | 1.9
101 | S=C1NCCNC(=S)NCCOCCOCCN1 | -0.01
102 | COc1ccc(-n2nc(C(=O)NCC(=O)NC(C)C)c3ccccc3c2=O)cc1OC | 0.47
103 | O=C(COc1ccc(-n2cnnn2)cc1)NC1CCCCC1 | 1.1

Screening data: PubChem BioAssay, Johns Hopkins Ion Channel Center

A portion of the library; most or all hits stand in other tables.
